# ClpP mod = qHTS Assay for Activators of ClpP | 340,000 compounds, 1.9% hits | ATP-dependent Clp protease proteolytic subunit (Bacillus subtilis (strain 168)), P80244 | purified B. subtilis ClpP, FRET peptide cleavage, 20 min | Potency, µM (highest dose often 57.5 µM), inactives show at the top dose activity change, negative = active; active = well fitted falling curve with a large enough effect; inconclusive = small, poorly fitted or top-dose-only effect; inactive = no such curve, though single readings can be large or run the other way; further: potency means the concentration at half of the fitted maximal effect; the source files actives as falling curves though it sought activators and does not explain the sign; nearly all actives have a fitted effect of over 65% in size; many hits overshoot -100%
# Target sequence (P80244 whole entry, looked up): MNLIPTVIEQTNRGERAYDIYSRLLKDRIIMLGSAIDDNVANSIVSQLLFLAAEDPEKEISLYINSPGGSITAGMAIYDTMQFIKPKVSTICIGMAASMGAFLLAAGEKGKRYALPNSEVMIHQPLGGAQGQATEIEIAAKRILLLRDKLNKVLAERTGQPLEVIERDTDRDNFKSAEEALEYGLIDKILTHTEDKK
#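 Buffer: 100 mM Tris/HCl pH8, 100 mM KCl, 0.05% low protease BSA, 2.5% glycerol, 0.01% Tween-20. ClpP 10 microg/mL final; 20 min RT; delta FRET normalized to ADEP and DMSO controls.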
# gsp agonist = activates gsp, the McCune-Albright syndrome mutation; AID 624287; gsp mutant cells, cAMP HTRF, 30 min; control for the full effect not named in the record; 340,000 compounds, 0.13% hits; Potency, µM (highest dose often 76.9 µM), for the others: at the top dose activation (cAMP increase), hits mostly activators; active = well fitted activation curve with a large enough effect; inconclusive = small, poorly fitted or top-dose-only effect, or another doubt; inactive = no such curve, though single readings can be large or run the other way; cell line not stated here;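 further: phosphodiesterase inhibitor Ro 20-1724 added with compounds to block cAMP breakdown; potency means the concentration at half of the fitted maximal effect; nearly all actives have a fitted effect of over 60% in size; about a fifth of the inactives were tested at one dose only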
#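 Cells stably selected in G418 were plated at 2000/well, grown 16-24 hr, then given compounds in DMSO with the PDE inhibitor […] (300 uM solution added) for 30 min at 37C; cAMP was read by HTRF.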
# TRPV1 potentiator = potentiators of human vanilloid receptor 1 (TRPV1) | potentiation, % at 8.33 µM | AID 540277 | Q8NER1 | 320,000 compounds, 0.02% hits | TRPV1-expressing cells, Fluo-8 calcium influx, capsaicin EC20 potentiation; host cell line not named in the record; control for the full effect not named in the record; active means potentiation above 80%; inconclusive means 30% to 80%; inactive means below 30%; further: 0% is about no effect
# Target sequence (Q8NER1 whole entry, looked up): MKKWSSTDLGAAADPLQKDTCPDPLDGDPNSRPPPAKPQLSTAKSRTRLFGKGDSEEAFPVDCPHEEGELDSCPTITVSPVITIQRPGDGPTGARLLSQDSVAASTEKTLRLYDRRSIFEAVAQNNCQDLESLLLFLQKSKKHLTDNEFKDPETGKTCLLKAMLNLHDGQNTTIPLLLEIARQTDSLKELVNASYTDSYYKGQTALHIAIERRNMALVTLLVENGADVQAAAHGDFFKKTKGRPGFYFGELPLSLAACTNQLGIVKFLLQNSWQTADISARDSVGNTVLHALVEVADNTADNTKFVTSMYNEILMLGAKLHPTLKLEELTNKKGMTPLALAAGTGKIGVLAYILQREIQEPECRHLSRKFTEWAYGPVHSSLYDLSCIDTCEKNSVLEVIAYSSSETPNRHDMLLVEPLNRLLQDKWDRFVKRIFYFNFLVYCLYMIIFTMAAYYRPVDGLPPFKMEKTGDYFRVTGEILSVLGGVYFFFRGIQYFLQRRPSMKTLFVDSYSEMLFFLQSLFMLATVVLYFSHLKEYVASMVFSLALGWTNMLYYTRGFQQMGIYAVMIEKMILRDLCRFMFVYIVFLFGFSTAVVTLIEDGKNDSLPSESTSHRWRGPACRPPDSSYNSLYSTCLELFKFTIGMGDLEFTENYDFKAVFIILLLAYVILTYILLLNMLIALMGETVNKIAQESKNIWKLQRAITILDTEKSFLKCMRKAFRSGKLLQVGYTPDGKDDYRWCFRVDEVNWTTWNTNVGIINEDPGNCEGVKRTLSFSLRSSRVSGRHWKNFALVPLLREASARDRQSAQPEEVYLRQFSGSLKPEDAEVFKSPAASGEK
#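 Fluo-8 calcium influx in TRPV1-expressing cells, kinetic read (ex 480/em 520 nm). Compound added and read 3 min for agonist activity, followed by capsaicin at EC20 final and 2 min further read for enhancement.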
# Active calls of the source: *; ? = inconclusive; · = not tested or not shown.
SMILES,ClpP mod,gsp agonist,TRPV1 potentiator
CCCCN(CCCC)CCNC(=O)Cn1nc(C)n2c(cc3sccc32)c1=O,-7.7%,·,·
Cc1ccc(CNC(=O)C2CCN(Cc3nc(-c4ccccc4C)oc3C)CC2)cc1,-0.1%,·,·
COc1cccc(CNC(=O)Cn2c(C)c3cnn(-c4ccccc4)c(=O)c3c2C)c1,-10.3%,·,·
CCOc1ccc(CCNC(=O)Cn2nc(CC)n3c(cc4sccc43)c2=O)cc1,-5.6%,·,·
CCC(C)NC(=O)Cn1ncc2c(C)n(Cc3ccc(F)cc3)c(C)c2c1=O (centres undefined),-16.6%,·,·
COc1ccccc1CNC(=O)c1oc2ccc3c(c2c1C)C(=O)CC(C)(C)O3,-26.7%,·,·
Cc1coc2c(C)c3oc(=O)c(CC(=O)N4CCCCC4)c(C)c3cc12,-18.3%,·,·
CCc1ccc(Oc2nc3c(C)cccn3c(=O)c2/C=C(\C#N)c2nc3ccccc3[nH]2)cc1,-4.1%,·,·
CCOC(=O)c1c(C)[nH]c(C)c1S(=O)(=O)N1CCC(C(=O)NCc2ccc(N(C)C)cc2)CC1,-2.9%,·,·
CCc1ccccc1N(C)C(=O)c1cnc(N2CCOCC2)c2ccccc12,-20.7%,·,·
CCCCc1nc2ccccc2n1CC(=O)N(COCC)c1c(C)cccc1CC,0.3%,·,·
Cc1ccc(Cn2c(CN3CCC(C(=O)NCCc4ccccc4)CC3)cc3ccccc32)cc1,0.4%,·,·
COc1ccc(-c2nc3scc(CCNS(=O)(=O)c4c(C)noc4C)n3n2)cc1OC,-0.4%,·,·
COc1cc(OC)c(NC(=O)c2cnc(N3CCCC3)nc2C)cc1Cl,-4.8%,·,·
CCOc1ccc(CC(=O)NC2CC(=O)N(c3cccc(F)c3)C2)cc1 (centres undefined),1.3%,·,·
COc1cccc(N2CCN(C(=O)c3cnn(-c4ccccc4Cl)c3C3CCN(C(=O)OC(C)(C)C)CC3)CC2)c1,2.1%,·,·
COc1ccc(-c2cc(C(C)=O)c(C)n2CCC(=O)Nc2ccc(C(F)(F)F)cc2)cc1,2.2%,·,·
C#CCN1CCc2onc(-c3ccc(Br)cc3)c2C1=O,2.7%,·,·
O=c1[nH]/c(=C\c2ccc([N+](=O)[O-])cc2)c(=O)[nH]/c1=C\c1ccc([N+](=O)[O-])cc1,2.1%,·,·
CC1CCCN(S(=O)(=O)c2ccc(NC(=O)c3nc(SC(C)C)ncc3Cl)cc2)C1 (centres undefined),-2.6%,·,·
CCc1ccc(-n2c(=O)c3c4c(sc3n(Cc3cc(=O)n5c(C)cccc5n3)c2=O)CCC4)cc1,?,·,·
CCc1ccc(-c2cc(C)no2)cc1S(=O)(=O)Nc1ccc(Cl)cc1,-1.5%,·,·
Cc1cccc(C)c1-n1nnnc1C(c1ccnc2ccccc12)N1CCN(c2ccccc2F)CC1 (centres undefined),-0.8%,·,·
COc1ccccc1Oc1nc2c(C)cccn2c(=O)c1/C=C(\C#N)c1nc2ccccc2[nH]1,-7.5%,·,·
CCOc1ccc(NC(=O)Cn2c(=O)n(Cc3ccccc3)c(=O)c3sc4ccccc4c32)cc1,?,·,·
Cc1nc2ccn(Cc3cccs3)c(=O)c2cc1C(=O)N1CCN(c2ccc(F)cc2)CC1,-7.4%,·,·
CCOC(=O)COc1ccc(CC)cc1C(=O)c1ccn2nc(-c3ccccc3)cc2n1,-4.6%,·,·
Cc1ccccc1Nc1c(-c2cccc(N(C)C)c2)nc2ccc(Br)cn12,-2.3%,·,·
CCCCN(CCCNC(=O)c1cc(Nc2ccc(OC)cc2)nc2ccccc12)Cc1ccccc1,-10.1%,·,·
COc1ccc(C2c3cccn3CCN2S(=O)(=O)c2ccccc2[N+](=O)[O-])cc1OC (centres undefined),1.3%,·,·
O=C(NC1CCCC1)c1ccc2c(c1)N(Cc1c(F)cccc1Cl)C(=O)c1ccccc1S2,-2.1%,·,·
CCc1ccc(Cn2c(CNS(=O)(=O)c3ccc(C)c(C)c3)nc3cccnc32)cc1,-0.5%,·,·
Cc1cccc(N2CCN(C(=O)C3CCN(S(=O)(=O)c4cccs4)CC3)CC2)c1C,-3.0%,·,·
CCC(C(=O)N1CCN(c2cc(Cl)ccc2C)CC1)n1nc(C)n2c(cc3occc32)c1=O (centres undefined),-5.9%,·,·
Cc1ccc2c(=O)cc(C(=O)Nc3c(C(=O)c4ccccc4)oc4ccccc34)oc2c1,0.8%,·,·
Cc1ccccc1NS(=O)(=O)c1ccc2[nH]cc(C(=O)N3CCCCC3)c(=O)c2c1,4.1%,·,3.3
CCc1ccc(NC(=O)CC2C(=O)N(c3ccc(Cl)cc3)C(=O)N2C2CCCC2)cc1 (centres undefined),4.0%,·,9.3
O=C1COc2cc(S(=O)(=O)NCc3ccco3)c(Cl)cc2N1,-0.3%,·,5.2
O=C(NCCc1nc2ccccc2n1Cc1ccccc1F)c1ccc(F)cc1,-0.4%,·,-1.7
CCOc1ccc(CN2C(=O)c3ccccc3Sc3ccc(C(=O)NCc4ccc(C)cc4)cc32)cc1,-5.7%,·,22.6
CC(=O)N1CCCc2cc(S(=O)(=O)Nc3ccc(C)c(F)c3)ccc21,1.3%,·,10.7
COc1ccc(Nc2nc3c(S(=O)(=O)c4ccccc4)nnn3c3ccc(Cl)cc23)cc1,-5.0%,·,5.1
CN(c1ccccc1)S(=O)(=O)c1nnc(NC(=O)c2ccccc2)s1,-4.1%,·,13.3
COc1ccccc1Nc1cc(C(=O)NCCCN(C)C2CCCCC2)c2ccccc2n1,-1.7%,·,?
O=C(NCc1ccc2c(c1)OCO2)c1ccc2c(c1)N(Cc1cccc(Cl)c1)C(=O)c1ccccc1S2,-7.8%,·,-2.2
COC(=O)c1cc(NC(=O)c2ccc3c(c2)NC(=O)c2ccccc2S3)cc(C(=O)OC)c1,-6.1%,·,-1.8
CCCCCCn1c(/C=C/c2ccccc2)nc2ccccc21,4.0%,·,-7.9
COCCCNC(=O)c1ccc(-n2c(-c3ccccc3)cc3c2CCCCC3)cc1,-7.6%,·,0.9
COc1ccc(OC)c(NC(=O)c2c(NCc3cccs3)sc3c2CCCC3)c1,-4.4%,·,9.0
Cc1ccc(NS(=O)(=O)c2ccc3[nH]c4c(c3c2)CCCCCC4)cc1C,-24.9%,·,6.4
CCOC(=O)C1CCCN(c2c(C(=O)c3ccc(C)cc3)cnc3ccc(OCC)cc23)C1 (centres undefined),1.3%,·,-17.6
Nc1c(C(=O)Nc2ccc(Br)cc2)sc2nc(-c3ccncc3)ccc12,3.5%,·,5.8
O=C(Nc1nc2nc(-c3ccccc3)cc(=O)n2[nH]1)c1ccc(F)cc1,-4.6%,·,2.3
Cc1ccc([C@H]2Nc3ccc(S(=O)(=O)Nc4cccc(Cl)c4C)cc3[C@H]3C=CC[C@H]32)cc1,-1.0%,·,9.6
CC(C)(C)c1ccc(-c2nc(SCC(=O)Nc3ccc(Cl)cc3)[nH]c(=O)c2C#N)cc1,-3.8%,·,17.3
COc1ccc(C(=O)c2cn(CC(=O)Nc3cc(OC)cc(OC)c3)c3ccc(OC)cc3c2=O)cc1,-6.4%,·,9.0
Cc1cc(OCCCn2c(CCNC(=O)C3CCCCC3)nc3ccccc32)ccc1Cl,0.9%,·,-2.0
CCC(=O)C1=C(c2ccc(OC)c(OC)c2)N(C(=O)CC)n2c(CC)nnc2S1,3.5%,·,14.2
CCCSc1nnc2c(n1)OC(c1sccc1C)Nc1ccccc1-2 (centres undefined),1.7%,·,-2.5
COc1ccc(NC(=O)Cn2cc(C(=O)c3ccncc3)c(=O)c3cc(C)ccc32)cc1Cl,-11.0%,·,10.7

# (more compounds)
SMILES,ClpP mod,gsp agonist,TRPV1 potentiator
Cc1ccc(N(C)S(=O)(=O)c2nnc(NC(=O)C3CCCCC3)s2)cc1,-3.6%,·,-10.0
CCOC(=O)CC(NS(=O)(=O)c1ccc2[nH]c3c(c2c1)CCCC3)c1ccccc1Cl (centres undefined),-16.4%,·,4.7
COc1ccc(OCC(=O)Nc2ccc(-c3nc4cc(C)c(C)cc4o3)cc2)cc1,4.1%,·,1.8
CN1CCc2c(sc(NC(=O)CSc3ccc(F)cc3)c2-c2nc3ccccc3s2)C1,-7.8%,·,2.8
O=C(NCc1ccc2c(c1)OCO2)c1ccc2c(c1)N(Cc1c(F)cccc1Cl)C(=O)c1ccccc1S2,-7.3%,·,9.1
CCSc1ncc(Cl)c(C(=O)Nc2nc3ccc(OC)cc3s2)n1,-0.2%,·,-7.0
CCOc1cc2sc(N3CCC(C(=O)Nc4ccc(C(C)C)cc4)CC3)nc2cc1Br,-1.3%,·,1.8
CCCCN(CCCNC(=O)c1cc(Nc2cccc(SC)c2)nc2ccccc12)Cc1ccccc1,?,·,-4.5
O=C(/C=C/c1ccco1)Nc1ccc(F)cc1,1.9%,·,19.7
COCCN1C(=O)c2[nH]nc(-c3ccccc3O)c2C1c1ccc(OCc2ccccc2)c(OC)c1 (centres undefined),-8.7%,·,4.1
CC(=O)N1CCOc2cc(S(=O)(=O)Nc3cccc(C(F)(F)F)c3)c(Cl)cc21,-1.0%,·,-16.7
CCc1ccc(NC(=O)N(Cc2c[nH]c3ccccc23)C2CCCCCC2)cc1,-5.1%,·,-1.6
Cc1cccc(S(=O)(=O)c2cn(Cc3ccccc3)c3cc(N4CCC(C)CC4)c(F)cc3c2=O)c1,4.8%,·,6.2
O=C(CCS(=O)(=O)c1ccccc1)N(Cc1cccnc1)c1nc2c(Cl)cccc2s1,2.1%,·,0.7
Cc1cccc(S(=O)(=O)Nc2cccc(-c3ccc(N4CCCCC4)nn3)c2)c1,-0.4%,·,1.6
Cc1ccc(CNc2c(C)c(C)nc3nncn23)cc1,-3.0%,·,-6.1
Cc1ccc(Cn2c(CCNC(=O)c3cccc(C)c3)nc3ccccc32)cc1,22.4µM*,·,-16.8
COc1cc(NS(=O)(=O)c2ccc3c(c2)CCCN3C(C)=O)cc(OC)c1OC,-0.9%,·,9.8
CCS(=O)(=O)c1cccc(C(=O)N2CCN(c3nc4c(C)ccc(Cl)c4s3)CC2)c1,-5.9%,·,7.3
COc1cccc(CNC(=O)c2ccc3c(c2)N(Cc2ccc(F)cc2Cl)C(=O)c2ccccc2S3)c1,-9.2%,·,-1.7

# Ordered by heavy-atom count (lowest first): part of the list above.
SMILES,ClpP mod,gsp agonist,TRPV1 potentiator
CCSc1ncc(Cl)c(C(=O)Nc2nc3ccc(OC)cc3s2)n1,-0.2%,·,-7.0
Cc1ccc(Cn2c(CCNC(=O)c3cccc(C)c3)nc3ccccc32)cc1,22.4µM*,·,-16.8
CN1CCc2c(sc(NC(=O)CSc3ccc(F)cc3)c2-c2nc3ccccc3s2)C1,-7.8%,·,2.8

# (continued)
SMILES,ClpP mod,gsp agonist,TRPV1 potentiator
COc1ccc(-c2cn3cccnc3n2)cc1NC(=O)Nc1cc(C)ccc1C,-23.5%,·,-3.2
COc1ccc(OC)c(NCc2cccn2-c2nnc(N3CCC(C)CC3)s2)c1,-5.9%,·,-2.8
Cc1ccc(CCNC(=O)c2cc3c(s2)-c2ccccc2OC3)cc1,4.1%,·,-2.9
COc1ccccc1NC(=O)C1=C(C)Nc2nc(SCc3cccc(F)c3)nn2C1c1ccc(C(=O)O)cc1 (centres undefined),1.1%,·,3.0
O=C(NC1CC(=O)N(c2ccc3c(c2)OCCO3)C1)c1c(F)cccc1Cl (centres undefined),-2.0%,·,0.5
C=Cc1ccc(Cn2c(C(=O)O)c(CNCc3ccccc3)c3ccc(C)cc32)cc1,-21.5%,·,2.0
O=C(Nc1ccc(Br)cc1)c1ccc(F)c(S(=O)(=O)NC2CCCCCC2)c1,-10.0%,·,-17.8
Cn1nnnc1SCCCNCc1ccccc1OCc1ccccc1Cl,-1.6%,·,10.9
COc1ccccc1N1CCN(c2ccc3c(c2)S(=O)(=O)c2cccc(C(=O)NCc4cccc(F)c4)c2C3=O)CC1,-3.3%,-24.1%,·
C[C@H]1CN([C@@H](C)CO)S(=O)(=O)c2ccc(Br)cc2O[C@H]1CN(C)C(=O)c1cccc(F)c1,0.4%,-29.2%,·
CC1(C)CC(=O)C=C(c2n[nH]nc2C2CC2)C1,1.6%,17.1%,·
CCc1cc(-c2cnnn2CCc2c[nH]c3ccccc23)ccc1-c1cn(CC(C)C)nn1,-1.6%,-0.9%,·
COc1cccc(S(=O)(=O)N(C)C[C@@H]2Oc3cc(Br)ccc3S(=O)(=O)N([C@@H](C)CO)C[C@@H]2C)c1,-1.2%,12.5%,·
C[C@@H]1c2ccccc2N2C[C@H](Cc3ccc(C(=O)c4ccccc4)cc3)C[C@@H]12,-3.0%,?,·

# Screens from PubChem BioAssay.

# Some of the compounds tested (hit frequency here may not be typical).
